Compound activity: PubChem BioAssay, several laboratories
Proteasome disasm: blocks ATP-dependent breakdown of the yeast 26S proteasome; anti-FLAG beads, GFP-proteasome disassembly, flow cytometry; 24,000 tested, 0.2% active; inhibition of disassembly, % (no concentration beside the values); AID 751;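 active means above 40%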;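 further: plate controls were ATP control with full disassembly for no effect and ATP-gamma-S intact proteasomes for full effect; higher percent means more bead fluorescence retained so stronger block of disassembly; stock transfer was 100 nL into about 10 µL; wells with too few beads may also be inconclusive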
VCAM-1 rise: boosters of cytokine-driven VCAM-1 levels – cell-based, plate reader, pooled HUVEC, TNFa stimulus (AID 455). augmentation, % at 5 µM. HUVEC TNFa-induced VCAM-1 immunofluorescence, plate reader; numbers were filed only for top-ranked candidate wells. 10,000 tested, 0.2% active;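 active means a compound raising TNF-alpha-driven VCAM-1 surface staining, with its hit status upheld on visual or statistical review; inactive means the rest, including hits rejected on review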;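 further: 0% = TNFa with vehicle and 100% = strongest image-checked hit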
An asterisk follows results filed as active; i = inactive; / = not tested or not shown.

Screens in order: VCAM-1 rise	Proteasome disasm
1. CCOC(=O)N1CCN(C(=O)c2ccc(-n3c(=S)[nH]c4ccccc4c3=O)cc2)CC1
 : /	0.3
2. COc1cc(-c2cc(C(=O)O)c3c(OC)c(OC)c(OC)cc3n2)ccc1O
 : /	-0.9
3. O=C(CCNS(=O)(=O)c1cccs1)N1CCc2ccccc2C1
 : /	-0.4
4. COc1ccc(Cl)cc1NC(=O)c1nc2nc(C)cc(C(F)F)n2n1
 : /	-1.0
5. O=C(Nn1cnnc1)c1cc2c(s1)CCCC2
 : i	-0.9
6. COc1ccccc1NC(=O)CCc1c(C)[nH]c(=O)c(C#N)c1C
 : /	-1.8
7. CC(C)NC(=O)CCCn1c(=S)[nH]c2cc3c(cc2c1=O)OCO3
 : /	-2.4
8. CC(=O)Nc1ccc(S(=O)(=O)N2CCC(N(C)CCC(C)C)CC2)cc1
 : /	0.4
9. Cc1nn(-c2ccc(Cl)cc2)c2sc(C(=O)N3CCN(c4ccccn4)CC3)cc12
 : i	-0.7
10. O=C(Cn1ncc2c1-c1ccccc1OC2)N1CCN(Cc2ccc3c(c2)OCO3)CC1
 : /	-0.5
11. O=C(CCCC1=NS(=O)(=O)c2ccccc2N1)N1CCN(c2ccc(Cl)cc2)CC1
 : /	-1.2
12. COc1cccc(-n2c(C)nc3c(cnn3-c3ccc(C)cc3)c2=O)c1
 : i	0.1
13. CCn1c(=O)cc(OCC(=O)NCc2cccnc2)c2ccccc21
 : /	6.5
14. Cc1cccc(Cn2cnc3c(nnn3Cc3ccc(F)cc3)c2=O)c1
 : /	1.2
15. CCOC(=O)c1[nH]c(C)c(C(=O)NC(C)CC)c1C (stereo unspecified)
 : /	-1.0
16. CCC1(CC)NC(=O)NC1=O
 : i	-1.4
17. CCOC(=O)Cn1cnc2c(nnn2Cc2ccc(Cl)cc2)c1=O
 : /	1.7
18. O=C1CCCc2c1cc(C(=O)NCCCN1CCOCC1)c(=O)n2-c1ccc(Cl)cc1
 : i	0.7
19. CCCCN(CC)CCCNC(=O)Cn1nc(Cc2ccncc2)c2ccccc2c1=O
 : /	-1.3
20. CCOC(=O)c1ccc(NC(=O)Cn2nnc(-c3ccc(C)cc3)n2)cc1
 : /	2.6
21. Cc1oc(-c2ccc(Cl)cc2)nc1CN1CCCC(C(=O)NCCCN2CCOCC2)C1 (stereo unspecified)
 : /	0.8
22. CN(C)c1ccnc(NCc2ccccc2)c1C#N
 : i	0.9
23. O=C(CCN1C(=O)c2ccccc2C1=O)Nc1ccc(F)cc1
 : i	-1.7
24. CC(C)(C)n1nnnc1CN1CCN(C2CCCC2)CC1
 : i	-0.5
25. Cn1c(C(=O)N2CCN(Cc3ccc4c(c3)OCO4)CC2)cc2c(=O)n(C)c3ccccc3c21
 : /	0.0
26. COc1ccc(N2CCN(c3nc4c(c(=O)[nH]c(=O)n4C)n3CCCc3ccccc3)CC2)cc1
 : i	1.1
27. CC(=O)Nc1nc2c(c3c1c(=O)oc1ccccc13)CC(C)CC2 (stereo unspecified)
 : i	0.4
28. O=C(C1CCC1)N1CCc2cc(S(=O)(=O)Nc3ccc4c(c3)OCCO4)ccc21
 : /	-1.0
29. Cn1c(=O)oc2cc(S(=O)(=O)N3CCC(C(=O)NCC4COc5ccccc5O4)CC3)ccc21 (stereo unspecified)
 : /	4.0
30. CC1=C(C(=O)OCc2ccccc2)C(c2ccc(C)o2)C2=C(CCCC2=O)N1 (stereo unspecified)
 : i	-0.4
31. CCN(CC)CCOC(=O)c1c(C)oc2ccc(O)cc12
 : i	-0.8
32. CN(CCNC(=O)C1CC(=O)N(C2CCCC2)C1)Cc1ccccc1 (stereo unspecified)
 : /	0.8
33. CCn1ccc(C(=O)Nc2ccc(Cl)cn2)n1
 : /	2.7
34. COc1ccc(-c2ccc(-c3nnc(-c4ccncc4)o3)cc2)cc1
 : i	0.9
35. O=C(Nc1cccnc1)Nc1ccc(F)c(Cl)c1
 : i	0.0
36. COc1ccccc1CNC(=O)C1CCCN(S(=O)(=O)c2c(C)[nH]c(=O)[nH]c2=O)C1 (stereo unspecified)
 : /	0.7
37. COc1ccccc1CNC(=O)CCn1c(=O)[nH]c2ccsc2c1=O
 : i	1.0
38. Cc1ccc(Nc2cc(C)nc3nc(C)nn23)cc1
 : /	0.4
39. O=C1NCCN1C(=O)C12CC3CC(CC(C3)C1)C2
 : /	-1.1
40. O=C1CC(N2CCOCC2)C(=O)N1c1ccccc1Cl (stereo unspecified)
 : i	-0.9
41. O=C(CSc1nc2ccccc2c(=O)[nH]1)c1ccc(O)c(O)c1
 : /	-1.6
42. O=C(CS(=O)(=O)Cc1ccccc1)N1CCc2ccccc2C1
 : i	1.0
43. Cc1ccc(C)c(N2CCN(C(=O)COc3cc(=O)n(C)c4ccccc34)CC2)c1
 : /	2.3
44. CC(=O)N[C@@H](CS)C(=O)O
 : i	0.3
45. O=C(CNc1ccc(Oc2ccccc2)cc1)N1CCOCC1
 : i	0.2
46. C(=C\c1ccccc1)/CN1CCN(C(c2ccccc2)c2ccccc2)CC1
 : i	0.0
47. c1ccc2c(c1)nc(-c1ccncc1)n1nnnc21
 : i	5.2
48. CCC(C)(C)NC(=O)CN(C(=O)c1snc(C(N)=O)c1N)c1ccc2c(c1)OCO2
 : i	-0.5
49. O=C(NCc1ccc(F)cc1)c1noc2c1CCCC2
 : /	0.2
50. Cc1cc(NC(=O)c2ccc(Cl)cc2)no1
 : i	2.5
51. CCOc1ccc(-c2cc(C(=O)N3CCN(C)CC3)c3ccccc3n2)cc1
 : /	-0.1
52. Cn1c(=O)[nH]c(=O)c2c1nc(N1CCNCC1)n2CCOc1ccccc1
 : i	0.2
53. CCc1ccc(NC(=O)CS(=O)CC(=O)NC(C)CCc2ccco2)cc1 (stereo unspecified)
 : i	0.2
54. COc1cc(NC(=O)c2ccc3c(=O)n(Cc4ccco4)c(=S)[nH]c3c2)cc(OC)c1OC
 : /	0.8
55. COC(=O)Nc1ccc(C)c2nsnc12
 : /	0.4
56. COc1ccc(C/C(O)=C(\C#N)c2nc3ccccc3s2)cc1
 : i	-0.3
57. O=C(COC(=O)C1=COCCO1)Nc1ccccc1Oc1ccccc1
 : i	0.7
58. O=C(Cn1ncc2c1-c1ccccc1OC2)N(Cc1ccco1)C1CCCCC1
 : /	0.1
59. CC1=C(C(=O)NCCN2CCOCC2)C2(CCC(C)CC2)OC1=O (stereo unspecified)
 : /	-0.4
60. CCOc1ccccc1-n1c(SCC(=O)Nc2ccc(CC)cc2)nc2n[nH]c(C)c2c1=N
 : /	5.5

A stretch from further up, for reference:
Screens in order: VCAM-1 rise	Proteasome disasm
41. O=C(CSc1nc2ccccc2c(=O)[nH]1)c1ccc(O)c(O)c1
 : /	-1.6
42. O=C(CS(=O)(=O)Cc1ccccc1)N1CCc2ccccc2C1
 : i	1.0
43. Cc1ccc(C)c(N2CCN(C(=O)COc3cc(=O)n(C)c4ccccc34)CC2)c1
 : /	2.3
44. CC(=O)N[C@@H](CS)C(=O)O
 : i	0.3
45. O=C(CNc1ccc(Oc2ccccc2)cc1)N1CCOCC1
 : i	0.2

Further structures
Screens in order: VCAM-1 rise	Proteasome disasm
61. CCC(CC)C(=O)Nc1c2c(nn1-c1ccc(OC)cc1)CS(=O)(=O)C2
 : /	-1.2
62. CCOC(=O)N1CCC(Nc2c(NCCN3CCN(c4cccc(Cl)c4)CC3)c(=O)c2=O)CC1
 : /	3.3
63. Cc1cccc(N2CCN(CCNC(=O)c3cc4c(s3)CS(=O)(=O)C4)CC2)c1C
 : /	3.5
64. O=C(O)c1cccn2c(=O)c3ccccc3nc12
 : i	-0.3
65. Nc1nc2ccccc2n1C(=O)CCc1ccccc1
 : i	-0.2
66. Cc1c(C(=O)N2CCOCC2)oc2ccc(S(=O)(=O)N3CCCCCC3)cc12
 : /	0.4
67. CC1C(=O)CC(c2ccccc2)N(C)C1c1ccccc1 (stereo unspecified)
 : /	0.8
68. Cc1ccc(C)c(-n2c(Cc3cc(=O)[nH]c(=O)[nH]3)nnc2SCC(=O)NCc2ccco2)c1
 : i	0.4
69. O=C(NCCN1CCOCC1)C1CCC(=O)N1Cc1ccccc1Cl (stereo unspecified)
 : i	-0.1
70. O=C(c1cccc(N2C(=O)C3CC=CCC3C2=O)c1)N1CCCCCC1 (stereo unspecified)
 : /	2.9
71. CCCN(CCC)C(=O)Cn1c(=O)n(CCCCC(=O)NCc2ccco2)c(=O)c2ccccc21
 : /	1.1
72. COCCCNC(=O)CCNS(=O)(=O)c1ccc(C)cc1
 : /	1.4
73. Cn1c(C(=O)NC2CC2)cc2c(=O)n(C)c3ccccc3c21
 : /	0.7
74. CN(C)c1ccc(NC(=O)CN2CCN(CC(=O)Nc3ccc(F)cc3)CC2)cc1
 : /	0.1
75. CCCN1CCN(C(=O)CCCNC(=O)Cn2cnc3sc(C)c(C)c3c2=O)CC1
 : /	0.1
76. COC(=O)CN(c1ccc(C)c(Cl)c1)S(C)(=O)=O
 : i	-1.0
77. CC(C)(C)C1CCc2onc(C(=O)Nc3ccc(F)cc3F)c2C1 (stereo unspecified)
 : /	-1.5
78. O=C(O)c1cccc2c1C(=O)N(C1CCCCC1)C2
 : /	7.8
79. O=C(c1cnn2ccccc12)N1CCc2ccccc21
 : /	-0.3
80. COC(=O)Cn1cnc2sc(C)c(S(=O)(=O)N3CCN(c4ccccc4OC)CC3)c2c1=O
 : /	-0.3
81. COc1ccc(CCN(Cc2cc3cccc(C)c3[nH]c2=O)C(=O)N2CCCC2)cc1OC
 : i	-0.9
82. CCOC(=O)NCc1ccc2c(c1)cc(C)n2C
 : /	1.5
83. COc1ccc2oc(=O)c(C(=O)N3CCN(c4ccccc4F)CC3)cc2c1
 : i	-0.8
84. CCOC(=O)N1CCN(C(=O)C(CC(C)C)NC(=O)C2CCCCC2)CC1 (stereo unspecified)
 : /	-1.4
85. Cc1ccc(Cn2c(SCC(=O)NCc3ccco3)nc3ccsc3c2=O)cc1
 : /	-1.3
86. CCOc1ccc(CCNC(=O)C2CCC(=O)N2C2CCCCC2)cc1OCC (stereo unspecified)
 : /	1.0
87. COC(=O)c1ccc2c(=O)n(CCCCCC(=O)NCc3ccccn3)c(=O)[nH]c2c1
 : /	-2.7
88. CCN(CCCNC(=O)C1CCCN(S(=O)(=O)c2cnc[nH]2)C1)c1ccccc1 (stereo unspecified)
 : i	2.1
89. COC(=O)CSc1nnc(CNC(=O)c2ccccc2OC)n1-c1ccc(OC)cc1
 : /	-1.4
90. CCCCCCC(c1c(C)n(C)n(-c2ccccc2)c1=O)c1c(C)n(C)n(-c2ccccc2)c1=O
 : i	-6.5
91. CC(C)(C)c1ccc2c(c1)OCC(C(=O)O)O2 (stereo unspecified)
 : i	-0.3
92. CCOC(=O)C1=C(C)Nc2ncnn2C1c1ccccc1F (stereo unspecified)
 : i	0.4
93. COc1cccc(C2C(C(N)=O)=C(C)Nc3nc(-c4ccccc4Cl)nn32)c1 (stereo unspecified)
 : i	-0.8
94. Cc1ccc(CS(=O)(=O)CCC(=O)N2CCOCC2)cc1
 : /	0.6
95. COc1ccc(CNC(=O)CCn2c(=O)oc3ccccc32)cc1
 : /	-1.2
96. CCOP(=O)(c1ccc(N(C)C)cc1)C(O)c1ccccc1OC (stereo unspecified)
 : i	1.0
97. c1ccc2[nH]c(-c3cscn3)nc2c1
 : i	0.3
98. CCOC(=O)N1CCN(S(=O)(=O)c2ccc(C(=O)Nc3sc4c(c3C#N)CCC4)cc2)CC1
 : /	0.3
99. CCC(c1nnc(SCC(=O)NCC2CCCO2)n1Cc1ccccc1)N(C)C (stereo unspecified)
 : i	-0.7
100. Cc1nnc(SCC(=O)NCc2ccco2)[nH]c1=O
 : /	5.2
101. CC(n1cnnn1)C12CC3CC(CC(C3)C1)C2 (stereo unspecified)
 : i	-0.8
102. CC(C)NC(=O)CCNS(=O)(=O)c1ccc(Br)cc1
 : /	0.2
103. CCN(C(=O)CCc1nc(-c2ccccc2F)no1)c1cc(OC)ccc1OC
 : i	-3.1
104. Cc1cc(=O)n(CCCO)c(O)c1C#N
 : /	-0.1
105. CCOc1ccc(OCc2ccc(C(=O)Nc3cccc(C)n3)o2)cc1
 : i	-0.4
106. O=C(Nc1ccccc1-c1ccccc1)NC1CCN(CC(=O)N2CCOCC2)CC1
 : i	-0.6
107. COc1ccccc1NC(=O)CSc1nnnn1-c1ccc2c(c1)OCO2
 : i	0.2
108. CCN(C(=O)Cn1c(=O)n2nc(CCn3nc(C)cc3C)nc2c2ccccc21)c1cccc(C)c1
 : /	2.4
109. O=C(NCc1ccco1)C1CCCN(S(=O)(=O)c2cccc3nsnc23)C1 (stereo unspecified)
 : /	2.0
110. CCN1C(=O)c2ccccc2S(=O)c2ccc(C(=O)NC3CC3)cc21 (stereo unspecified)
 : i	-0.8
111. O=C(NC1CC1)c1ccc2c(c1)ncn2C1CCCC1
 : /	-2.9
112. CC1CN(Cc2nc3c(c(=O)n(C)c(=O)n3C)n2CC(=O)c2ccccc2)CC(C)O1 (stereo unspecified)
 : /	-0.8
113. Fc1cccc(Nc2ncnc3c2cnn3-c2ccccc2)c1
 : i	-0.2
114. CCn1cc(C(=O)NCC2CCCO2)c(=O)c2cc(S(=O)(=O)N3CCCCC3)ccc21 (stereo unspecified)
 : /	-0.4
115. CCN1CCN(C(c2ccc(F)cc2)c2nnnn2Cc2cccs2)CC1 (stereo unspecified)
 : i	-2.7
116. CCOC(=O)c1ccccc1NC(=O)c1ccc(NS(C)(=O)=O)cc1
 : i	-0.1
117. CCOC(=O)c1c(C)c(C(=O)N(C)C2CCCCC2)c(C)n1C
 : /	5.1
118. Cc1ccc(C2C(C#N)=C(N)Oc3cc4c(cc32)OCO4)cc1 (stereo unspecified)
 : i	0.4
119. CCOC(=O)c1c(C)oc2ccc(O)c(CN3CCCCC3)c12
 : i	0.2
120. COc1cc2[nH]c(=O)n3nc(-c4ccccc4)nc3c2cc1OC
 : /	0.6

This is a subset. The share of hits here may be higher or lower than overall.
